MT1-MMP reporter: MT1-MMP gene expression reporter suppression – cell-based, luciferase reporter, luminescence (AID 618). actives 0.62% (n = 87,000). calls from a first round at 10 µM; hits with a dose series show EC50 in µM. MT1-MMP promoter luciferase reporter cells, luminescence;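 active = over half of the reporter light lost at 10 µM or EC50 under 50 µM; inactive = the rest and hits that failed the dose series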;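 also: actives suppress MT1-MMP promoter-driven transcription so potencies describe inhibitors; HT1080 fibrosarcoma cells; overnight exposure; toxic or luciferase-blocking compounds were not removed from the actives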
Hsc70 ATP site: Hsc70 inhibitors, probe displacement, primary screen, biochemical, fluorescence polarization (AID 568); displacement, % at 20 µM; hits with a dose series show IC50 in µM; 83,000 tested, under 10 active; Hsc70 fluorescence polarization, probe displacement; higher % means a stronger effect; strong numbers were not always called active;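 active = displacement above 50% without optical interference and an IC50 on retest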;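 also: ATPase domain with a fluorescein-tagged ATP probe; 0% = vehicle and 100% = excess ADP; read after one hour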
WNV protease inh: inhibitors of West Nile virus NS2B-NS3 protease | z-score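 (tested at a level between 10 and 100 µM)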 | actives 0.18% (n = 65,000) | AID 577 | P06935 | WNV NS2B-NS3 protease, fluorogenic substrate Ex360/Em465; active compounds read low;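 active = z-score at -3 or under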;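 also: score is relative to mean and spread of the compound wells of a plate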
Target sequence (P06935 1371-1501 limits assumed): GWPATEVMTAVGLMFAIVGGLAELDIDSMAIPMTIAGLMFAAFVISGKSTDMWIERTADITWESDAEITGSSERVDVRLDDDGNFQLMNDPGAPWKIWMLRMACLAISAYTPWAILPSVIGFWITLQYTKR
Target sequence (P06935 1502-1679 limits assumed): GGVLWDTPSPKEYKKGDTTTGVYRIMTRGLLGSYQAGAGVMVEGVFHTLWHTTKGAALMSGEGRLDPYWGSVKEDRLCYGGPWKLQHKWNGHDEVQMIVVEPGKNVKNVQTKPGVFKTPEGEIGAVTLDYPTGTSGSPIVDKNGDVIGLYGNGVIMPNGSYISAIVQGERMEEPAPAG
Numbers without * were called inactive; i = inactive; / = not tested or not shown. A portion of the library; the hit share may differ from the screen's.

Below each compound – MT1-MMP reporter | Hsc70 ATP site | WNV protease inh
C=CCOC(=O)C1=C(C)Nc2nnnn2C1c1ccc(OC)cc1OC (stereo unspecified)
→ i | 0.1% | /
CCCC12CN3CC(CCC)(CN(C1)C3C(O)C(O)C(O)CO)C2=O (stereo unspecified)
→ i | -4.7% | -0.94
COc1ccccc1C(=O)NCC(c1cccnc1)N(C)C (stereo unspecified)
→ i | -1.1% | -0.06
O=C(CCNc1n[nH]c(=O)[nH]c1=O)N1CCOCC1
→ i | 0.8% | -0.04
CCCCC(=O)Nc1nc(C)c(C(C)=O)s1
→ i | -1.0% | 1.74
O=C(C(Cc1ccccc1)n1cccc1)N1CCCCCC1 (stereo unspecified)
→ i | 0.0% | -1.22
Cc1ccc(SCC(=O)NCc2cccnc2)cc1
→ i | 3.1% | /
COc1cccc(-n2nnc3c(=O)n(Cc4ccc(Br)cc4)cnc32)c1
→ i | -0.2% | 0.57
O=C(Cn1c(=O)n(CCCC(=O)NC2CCCC2)c(=O)c2ccccc21)NCCC1=CCCCC1
→ i | -8.5% | 1.89
Cc1n[nH]c(C)c1S(=O)(=O)Nc1ccc2c(c1)OCCO2
→ i | 1.9% | -0.53
Cc1ccnc(NC(=O)CCCOc2cc(=O)n(C)c3ccccc23)c1
→ i | 9.3% | 2.25
CCOCCCNC(=O)CC1Oc2ccc(C)cc2NC1=O (stereo unspecified)
→ i | -1.8% | -0.68
CSc1nnc(C)c(=O)[nH]1
→ i | -0.2% | -0.04
COc1cccc(NC(=O)CN(c2cccc(F)c2)S(C)(=O)=O)c1
→ i | 0.1% | -0.62
COCCn1c(SCc2cnc(-c3ccccc3)s2)nnc1-c1ccncc1
→ i | -6.7% | -0.58
COc1ccc(C2CC(c3ccccc3)Nc3nc(NC(=O)c4ccco4)nn32)cc1 (stereo unspecified)
→ i | 1.1% | -0.65
O=C(c1cccnc1)N(Cc1ccccc1)c1ccccc1
→ i | 2.7% | -0.24
CN1CCN(C2=C(Cl)C(=O)N(CCc3ccccc3)C2=O)CC1
→ i | 7.1% | -1.37
CC(=O)Nc1nnc(SCC(=O)NCCOc2ccccc2)s1
→ i | -3.1% | -1.06
Cn1c(/N=C/c2cccs2)nc2ccccc21
→ i | -0.6% | -0.85
COc1cccc(N(CC(=O)N2CCc3ccccc3C2)S(C)(=O)=O)c1
→ i | 4.2% | /
Clc1ccc(OCCn2cnc3ccccc32)cc1
→ i | 1.7% | 0.33
O=C1NC2NC(=O)N(C(Cc3ccccc3)C(=O)O)C2N1 (stereo unspecified)
→ i | -4.3% | -0.09
CCOC(=O)C(CC)Sc1nc2c(cnn2-c2ccccc2)c(=O)[nH]1 (stereo unspecified)
→ i | 1.2% | 0.53
COc1cc(OC)cc(-n2c3nc4ccccc4nc3c3c(=O)n(CC4CCCO4)cnc32)c1 (stereo unspecified)
→ i | -15.2% | 0.27
Clc1cccc(CNc2nnnn2-c2ccccc2)c1
→ i | 1.6% | /
CCOc1cc(S(=O)(=O)NC2CCCCCC2)ccc1F
→ i | -3.0% | 0.0073
CCOc1ccccc1-n1c(SCC(=O)N2CCOCC2)nnc1-c1ccccn1
→ i | 0.0% | -0.59
CCOc1cccc(C2c3c(oc4ccccc4c3=O)C(=O)N2c2ccccn2)c1 (stereo unspecified)
→ i | -2.9% | -1.37
COCCOC(=O)C1=C(C)NC(C)=C(C(=O)OC(C)C)C1c1cccc([N+](=O)[O-])c1 (stereo unspecified)
→ i | 0.1% | -0.23
COC(=O)c1cc2oc3ccccc3c2n1Cc1ccccn1
→ i | 0.9% | -0.51
Cc1cc(NS(=O)(=O)c2cccs2)no1
→ i | -8.7% | -1.28
CCOC(=O)Nc1ccc(NC(=O)OCC)cc1
→ i | -1.2% | /
O=S(=O)(NCCc1ccncc1)c1cc(Br)ccc1F
→ i | -2.7% | 0.22
Cc1cc(C(C#N)c2ccccc2)n2ncnc2n1 (stereo unspecified)
→ i | -0.6% | -0.65
Cc1cc(C)c2cc(CN(CCO)C(=O)Nc3ccc(F)cc3)c(=O)[nH]c2c1
→ i | -2.7% | -0.63
O=C(c1ccccc1S(=O)(=O)NCC(O)COc1ccc([N+](=O)[O-])cc1)N1CCCCC1 (stereo unspecified)
→ i | 1.6% | /
CCS(=O)(=O)N1CCCC(C(=O)NCC2CCCO2)C1 (stereo unspecified)
→ i | 5.7% | -1.15
Cc1ccc(CNc2ccc3c(c2)OCO3)c(C)c1
→ i | 24.0% | -1.04
O=C(Nc1ccccc1)N(CCN1CCOCC1)Cc1ccccc1F
→ i | 1.7% | 0.35
Cn1nc(C(=O)Nc2ccc(S(=O)(=O)N3CCCC3)cc2)ccc1=O
→ i | -3.4% | -0.04
O=C(NCc1ccccc1)c1ccc(S(=O)(=O)N2CCCc3ccccc32)cc1
→ i | 5.5% | /
O=C(Nc1nc2c(s1)CCCC2)c1cccnc1
→ i | 3.7% | -0.34
O=S(=O)(c1ccccc1)N1CCN(S(=O)(=O)c2ccccc2)C1
→ i | -0.2% | 0.91
COc1cc(-c2nnc3sc(Cc4ccc(Cl)cc4)nn23)cc(OC)c1OC
→ i | -1.4% | -1.11
CC1CN(Cc2cc(=O)n3ccsc3n2)CC(C)O1 (stereo unspecified)
→ i | -1.1% | 1.92
O=C(O)C1CCN(c2ncccn2)CC1
→ i | -6.4% | -1.32
Cc1ccc2nc(-c3ccc(NC(=O)CN4CCN(C(=O)c5ccco5)CC4)cc3)sc2c1
→ i | -4.7% | 0.77
Cc1ccc(-c2nn(Cc3ccccc3)cc2/C=C/C(=O)O)cc1
→ i | -1.2% | /
COCC(=O)N(Cc1cc2ccccc2[nH]c1=O)c1ccccc1OC
→ i | -1.0% | 1.28
COc1ccc(C(=O)c2oc3ccc(OC)cc3c2N)cc1
→ i | 3.9% | -1.25
COc1ccc(CN(CCCN2CCOCC2)C(=O)Nc2ccccc2)cc1OC
→ i | -1.1% | -0.7
COc1cc(C2c3c(oc4cc(C)c(C)cc4c3=O)C(=O)N2c2cc(C)ccn2)ccc1O (stereo unspecified)
→ i | -2.3% | -0.09
C/C(N)=C(/C#N)C(=O)CSc1nc2cc(Cl)ccc2s1
→ i | -2.4% | 0.5
COC(=O)c1ccccc1NC(=O)C(CCS(C)(=O)=O)NC(C)=O (stereo unspecified)
→ i | 1.2% | -0.34
COc1ccc(CNC(=O)c2c(O)c3cccc4c3n(c2=O)CCC4)cc1OC
→ i | 7.8% | -0.13
COc1cc(OC)cc(C(=O)OCc2cc3ccccc3[nH]c2=O)c1
→ i | 1.2% | -0.11
Cc1ccc(C2CC(c3ccco3)n3nc(N)nc3N2)cc1 (stereo unspecified)
→ i | 0.5% | 0.95
Cc1c(-c2cccs2)[n+](=O)c2c(n1[O-])CCCC2
→ i | -11.4% | -0.55
CCOC(=O)c1c(-c2cccs2)csc1NC(=O)CCCC(=O)O
→ i | -7.1% | 0.11

New compounds follow
smiles	MT1-MMP reporter	Hsc70 ATP site	WNV protease inh
CC(N=c1ccccn1C(=O)Nc1cccc(C(F)(F)F)c1)c1ccco1 (stereo unspecified)	i	6.4%	/
CC(C)(C)c1ccc(OCC(O)CSc2ncn[nH]2)cc1 (stereo unspecified)	16.9µM*	0.7%	/
COCCSc1ccccc1C(=O)Nc1nncs1	i	-6.7%	1.16
Cc1cc(C)n(-c2nc3ccccc3nc2N2CCOCC2)n1	i	-3.7%	0.72
Nc1ncn(C(=O)c2ccco2)n1	i	-3.0%	0.38
COC(=O)Nc1ccc(S(=O)(=O)N2c3ccccc3CCC2C)cc1 (stereo unspecified)	i	-1.7%	-2.05
O=C(CSc1nnnn1-c1ccccc1)N1CCCc2ccccc21	i	-2.3%	/
O=C(CCS(=O)(=O)Cc1ccccc1)N1CCN(c2ccccc2)CC1	i	0.6%	/
CC(C)COc1ccc(C(=O)N(Cc2ccco2)C2CCS(=O)(=O)C2)cc1 (stereo unspecified)	i	-1.6%	0.09
Brc1cccc(-c2nnc3sc(CNC4CCCC4)cn23)c1	i	5.2%	-0.21

Of the compounds above, 4 have a COOH group.
smiles	MT1-MMP reporter	Hsc70 ATP site	WNV protease inh
O=C1NC2NC(=O)N(C(Cc3ccccc3)C(=O)O)C2N1 (stereo unspecified)	i	-4.3%	-0.09
O=C(O)C1CCN(c2ncccn2)CC1	i	-6.4%	-1.32
Cc1ccc(-c2nn(Cc3ccccc3)cc2/C=C/C(=O)O)cc1	i	-1.2%	/
CCOC(=O)c1c(-c2cccs2)csc1NC(=O)CCCC(=O)O	i	-7.1%	0.11

Continued:
smiles	MT1-MMP reporter	Hsc70 ATP site	WNV protease inh
Cc1cc(-c2nnc3n2N=C(c2ccc(-c4ccccc4)cc2)CS3)n[nH]1	i	-8.3%	-1.11
COC(=O)c1sc(S(=O)(=O)NCc2ccccc2)c(C(=O)OC)c1C	i	0.7%	/
O=C(NCCCn1ccnc1)C1c2ccccc2Oc2ccccc21	i	1.9%	-0.31
Cc1cc(C)c2c(N)c(C(=O)NCC3CCCCC3)sc2n1	i	6.3%	/
CCOc1ccc2nc(NC(=O)C3CCN(c4cnccn4)CC3)sc2c1	i	-1.4%	12.6
O=C(c1cc2cc(Cl)ccc2oc1=O)N1CCOCC1	i	-2.3%	-1.16
Cc1cc(=O)[nH]c(/N=C(\N)Nc2cccc3ccccc23)n1	i	-7.6%	-0.33
Cc1ccc(Cn2c(SCCN3CCCCC3)nc3c2c(=O)n(C)c(=O)n3C)cc1	i	-1.4%	-0.76
CCN(CC)Cc1csc(C(N)=O)c1	i	-7.2%	-0.13
CCOc1ccccc1NC(=O)CCc1ccc(C)o1	i	-0.8%	-0.55
CCCn1c(N2CCC(Cc3ccccc3)CC2)nc2c1c(=O)[nH]c(=O)n2C	i	1.0%	0.68
COc1ccc(Cc2nc(N)nc(N)n2)cc1	i	1.7%	/
O=c1oc(/C=C/c2ccco2)nc2sc3c(c12)CCC3	i	-66.2%	/
Cc1ccc(OCc2ccc(C(=O)Nc3nccs3)o2)cc1C	i	3.6%	/
CCN1CCN(C(c2cccs2)C(C)NC(=O)c2ccccc2)CC1 (stereo unspecified)	i	-0.3%	0.02
O=C1CC(c2ccco2)CC2=C1C1c3ccccc3C(=O)N1c1ccccc1N2 (stereo unspecified)	i	8.8%	-0.4
O=C1CC(c2ccccc2)Cc2nc(NCc3ccco3)ncc21 (stereo unspecified)	i	-6.1%	0.49
O=C(NCC(c1cccnc1)N1CCOCC1)c1ccc2c(c1)OCO2 (stereo unspecified)	i	-0.1%	-0.54
O=C(NCCCN1CCOCC1)[C@@H]1CSC2c3ccccc3C(=O)N21 (stereo partly specified)	i	-2.9%	-0.98
Cc1ccc(S(=O)(=O)Nc2nonc2C)cc1	i	4.4%	1.38
CCS(=O)(=O)N1CCCC(C(=O)N2CCc3ccccc3C2)C1 (stereo unspecified)	i	1.6%	-0.27
COC(=O)C(O)(CC(=O)Nc1cccc(SC)c1)C(F)(F)F (stereo unspecified)	i	-3.5%	0.57
Cc1cc(=O)oc(C)c1C(=O)NCC1CCCO1 (stereo unspecified)	i	6.0%	-0.07
CC(C)(O)C#Cc1ccc(C(=O)N2CCN(C(=O)c3ccco3)CC2)cc1	i	1.2%	0.67
CCOC(=O)C1=C(CSc2n[nH]c(N)n2)NC(=O)NC1C (stereo unspecified)	i	4.7%	-0.31
Cc1cc(NC(=O)CCC2COc3ccccc3O2)no1 (stereo unspecified)	i	7.7%	1.28
Cc1occc1-c1nnc(SCC(=O)NCCc2ccccc2)n1C(C)c1ccccc1 (stereo unspecified)	i	-3.1%	0.92
O=C(NCc1ccccc1)N(Cc1nc2ccccc2c(=O)[nH]1)C1CCCC1	i	-0.8%	1.31
CCOC(=O)c1cccnc1SCC(=O)NC(C)CC (stereo unspecified)	i	-0.1%	-0.59
CC(C)(C)c1nnc2sc(SCCN3C(=O)c4ccccc4C3=O)nn2c1=O	i	-3.3%	0.83

Among those listed so far, three have bromine:
smiles	MT1-MMP reporter	Hsc70 ATP site	WNV protease inh
COc1cccc(-n2nnc3c(=O)n(Cc4ccc(Br)cc4)cnc32)c1	i	-0.2%	0.57
O=S(=O)(NCCc1ccncc1)c1cc(Br)ccc1F	i	-2.7%	0.22
Brc1cccc(-c2nnc3sc(CNC4CCCC4)cn23)c1	i	5.2%	-0.21

Following part
smiles	MT1-MMP reporter	Hsc70 ATP site	WNV protease inh
CCCCCNC(CC(=O)Nc1ccc(OC)cc1)C(=O)O (stereo unspecified)	i	-7.0%	0.77
CCCN1CCN(C(=O)c2ccc(Sc3ccc(C)cc3)c(NC(C)=O)c2)CC1	i	-0.2%	/
COC(=O)Cn1c(CN(Cc2ccccc2)Cc2ccccc2)nc2c1c(=O)[nH]c(=O)n2C	i	2.8%	-0.78
Cn1c(C(=O)N2CCN(C(=O)c3ccco3)CC2)cc2c(=O)n(C)c3ccccc3c21	i	4.8%	0.8
COc1ccc(-n2c(C)cc(=O)c3c2CC(C)(C)CC3=O)cc1	i	0.9%	-0.97
Cc1ccc(-n2nnnc2SCC(=O)Nc2cccc(NC(=O)c3ccco3)c2)cc1C	i	-2.6%	-0.04
Cn1c2ccc(F)cc2c2ncn(CCCN(CCO)CCO)c(=O)c21	i	0.2%	/
CCN(CC)c1ccc(/C=c2\sc3nnc(-c4ccccc4Cl)n3c2=O)cc1	i	-79.1%	/

Assay outcomes (PubChem BioAssay)
